# Autofluor counter – flagged as autofluorescent in microsphere protease counterscreen; compound autofluorescence counterscreen, microsphere flow cytometry; stronger effect = higher value; fluorescence intensity (concentration not given with the values); actives 3.1% (n = 360,000);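 active = at least 3 SD above the mean of all compounds, about 16000 in these data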;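 note: 100 nL of 1 mM stock went into each well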
# * hit, by the source's call. The list is partial; rates above refer to the full screens.
SMILES,Autofluor counter
COc1cccc(S(=O)(=O)N(C)C[C@H]2OCc3cnnn3CCCC(=O)N([C@H](C)CO)C[C@@H]2C)c1,3279
Cc1cc(OCC(=O)OC(C)C(=O)NC2CC2)c(C(C)C)cc1Cl (stereo unspecified),3948
COC(=O)[C@]12CCCCC=C1N(Cc1ccccc1)C(=O)[C@H](CC(=O)NCc1ccc(OC)c(OC)c1)C2,6299
C#CCOc1ccc(CNC[C@H]2O[C@@H](n3ccc(=O)[nH]c3=O)[C@H](O)[C@@H]2O)cc1,5936
COc1ccccc1NC(=O)Nc1nc(C(N)CC(C)C)cs1 (stereo unspecified),3880
Cc1ccc(NC(=O)CCS(=O)(=O)c2ccc3nc(C)sc3c2)c(C)c1,5846
CCC1CCCCN1C(=O)COC(=O)c1cncc(Br)c1 (stereo unspecified),3880
CN(CC(=O)Nc1c(Cl)cccc1Cl)CC(=O)N1CCc2ccccc21,3928
N#Cc1ccc(-c2nc3ccc(Br)cn3c2Cc2cccc(F)c2)cc1,9466
O=C(/C=C/[C@H]1O[C@@H](n2cnc3c(NC(=O)c4ccccc4)ncnc32)[C@H](O)[C@@H]1O)NCc1ccco1,5422
CCc1nc2ccc(C(=O)NCc3cccs3)cn2c1N(CCC(C)C)CCN(C)C,3942
N#Cc1ccc(-c2nc3c4ccccc4ccn3c2Cc2ccccc2C(F)(F)F)cc1,8827
O=C(NCCS(=O)(=O)NCc1cccs1)c1ccccc1,3826
O=[N+]([O-])c1cc2ncccc2c2ncccc12,2888
C[C@H](CO)NC(=O)c1[nH]cnc1C(=O)Nc1ccc(CNC(=O)OC(C)(C)C)cc1,3379
Cn1ccc2c(N3CCOCC3)cc3c(c21)C1CCC3O1 (stereo unspecified),4195
CCOc1ccc(Cl)cc1-c1cc(C(=O)Nc2cc(OC)c(OC)c(OC)c2)[nH]n1,2593
CCCCN(C(=O)CCOc1ccc(OCC)cc1)c1c(N)n(Cc2ccccc2)c(=O)[nH]c1=O,3919
C[C@H](CO)N1C[C@H](C)[C@@H](CN(C)C(=O)c2ccc3ccn(C)c3c2)OCc2cnnn2CCCC1=O,3032
COc1ccc(NC(=O)C2(C)CCN2Cc2cccc(OC)c2F)cc1OC (stereo unspecified),3459
Clc1ccccc1-c1cc2nc(NCc3ccco3)ccn2n1,3003
COc1ccc(-c2cc(NC=O)c3ncc(-c4cc(OC)c(OC)c(OC)c4)n3c2)cc1,3878
Cc1ccc(NC(=O)c2cc(-c3cc(Cl)ccc3C)n[nH]2)cc1NS(C)(=O)=O,3804
O=C(O)Cn1nncc1-c1ccc(C(F)(F)F)cc1,3701
O=c1[nH]c(=S)[nH]c2c1C(c1ccc(F)cc1)OC(CCc1ccccc1)C2 (stereo unspecified),5483

# In the list so far, these have fluorine:
SMILES,Autofluor counter
N#Cc1ccc(-c2nc3ccc(Br)cn3c2Cc2cccc(F)c2)cc1,9466
N#Cc1ccc(-c2nc3c4ccccc4ccn3c2Cc2ccccc2C(F)(F)F)cc1,8827
COc1ccc(NC(=O)C2(C)CCN2Cc2cccc(OC)c2F)cc1OC (stereo unspecified),3459
O=C(O)Cn1nncc1-c1ccc(C(F)(F)F)cc1,3701
O=c1[nH]c(=S)[nH]c2c1C(c1ccc(F)cc1)OC(CCc1ccccc1)C2 (stereo unspecified),5483

# Next part:
SMILES,Autofluor counter
COc1ccc(NC(=O)COC(=O)C2CCCN2C(=O)OC(C)(C)C)cc1Cl (stereo unspecified),4432
CCOC(=O)C1=CCN(S(=O)(=O)c2ccccc2F)C1c1cccc(Cl)c1 (stereo unspecified),5714
O=C(Nc1nnc([C@@H]2C[C@H](O)[C@@H](CO)O2)s1)Nc1cccc2ccccc12,3879
COc1ccc(C(O)c2ncc(-c3ccccc3F)[nH]2)cc1 (stereo unspecified),3019
OC1C2COC(O2)C2OC(c3ccccc3)OC12 (stereo unspecified),5011
COc1cccc(-c2cc3nc(NCc4ccccc4F)n(C)c(=O)c3s2)c1,4021
CCc1nc2c(OCc3ccc(C(F)(F)F)cc3)cccn2c1N(C)C(=O)C(C)C,3734
CC1CC(C)(C)CC2(C1)NC(=O)N(CC(=O)Nc1ccc3c(c1)OCO3)C2=O (stereo unspecified),4058
COCCNC(=O)C1(C)CCCN(Cc2cc(C)ccc2C)C1 (stereo unspecified),2892
Cc1cc(C)c2cc(C#N)c(NCCCNC(=O)c3ccncc3)nc2c1,4094
CN(C(=O)C(C)(C)C)[C@H]1C[C@H]2c3[nH]c4ccccc4c3CCN2C(=O)[C@H]1CO,3546
COc1ccncc1-c1csc(C(O)c2ccccc2)n1 (stereo unspecified),3780
CSC[C@H]1CN(c2ccccc2)C(=O)[C@@H]1CC(=O)Nc1ccc(Br)cc1,3710
COCCN1C[C@@H](CO)O[C@@H](n2cnc3c(NC4CCC4)ncnc32)C1,3006
O=C(/C=C/[C@H]1O[C@@H](n2ccc(=O)[nH]c2=O)[C@H](O)[C@@H]1O)NCCCc1ccccc1,6072
CN(C)c1ncnc2c1ncn2[C@H]1CN(Cc2ccccc2)C[C@@H](CO)O1,3797
COc1ccc(C(=O)N/C(=C\c2ccc(-c3cccc([N+](=O)[O-])c3)o2)C(=O)NCCCN2CCOCC2)cc1,4631
CCCCCCN1CCN(C2CN(Cc3cn(Cc4ccc(Cl)cc4)nn3)S(=O)(=O)C2)CC1 (stereo unspecified),5668
O=C(Nc1cnns1)Oc1ccccc1,3364
COc1ccccc1C(=O)NNC(=O)c1ccc2ccccc2c1O,2858
O=C(Nc1ccc2c(c1)OCO2)c1cc(C2CCCCN2S(=O)(=O)Cc2ccccc2)on1 (stereo unspecified),3500
CCCc1ccc(C(O)c2ncc(-c3ccccc3C)[nH]2)cc1 (stereo unspecified),3048
O=C1NC[C@H](CCCCN2C[C@H](Cc3ccc(O)cc3)N(CCc3ccccc3)C(=O)C2=O)N(CCC2CCCCC2)C1=O,5837
CCCCCc1c(-c2cccc(Br)c2)ncn1CCc1ccccc1OC,5904
CC(Cc1ccccc1)NC(=O)CCNNC(=O)c1ccncc1 (stereo unspecified),3522

# Of the compounds above, these have bromine.
SMILES,Autofluor counter
CCC1CCCCN1C(=O)COC(=O)c1cncc(Br)c1 (stereo unspecified),3880
N#Cc1ccc(-c2nc3ccc(Br)cn3c2Cc2cccc(F)c2)cc1,9466
CSC[C@H]1CN(c2ccccc2)C(=O)[C@@H]1CC(=O)Nc1ccc(Br)cc1,3710
CCCCCc1c(-c2cccc(Br)c2)ncn1CCc1ccccc1OC,5904

# Remaining list, next part
SMILES,Autofluor counter
CCn1ncc(CN2CCC(n3nccc3NC(=O)c3ccccc3Cl)CC2)c1C,3802
Cn1c(NCCOc2ccccc2)nc2cc(-c3ccc(F)cc3)sc2c1=O,3453
CCCCCCN1C[C@@H](n2cc(-c3ccc(F)cc3)nn2)[C@H](O)C[C@@H]1c1ccc(OC)cc1,3050
COc1ccc(-c2cncc3nccn23)cc1OC,4079
C#CCNC(=O)C[C@@H]1C[C@@]2(C(=O)OCC)CCC=C2N(CCC2=CCCCC2)C1=O,4374
CC1CN(C(=O)COC(=O)c2ccc3ccccc3c2)CC(C)O1 (stereo unspecified),3851
CC(=O)c1sc(Nc2ccc(Oc3ccccc3)cc2)nc1C,5442
O=C1NC[C@H](CCCCN2C[C@H](Cc3ccccc3)N(CCc3ccc(O)cc3)C(=O)C2=O)N(CCC2CCCCC2)C1=O,5272
CCOC(=O)C1CCN(C(=O)c2ccccc2)c2scc(-c3ccccc3)c2C1=O (stereo unspecified),3885
Fc1ccc(-c2nc3c(Cl)cc(C(F)(F)F)cn3c2Cc2ccccc2)cc1,6769
Cc1cccnc1C(NC(=O)C1CCN(CCOc2ccc(F)cc2)CC1)c1ccc(F)cc1 (stereo unspecified),3490
COC(=O)[C@@]1(Cc2ccc(F)cc2)[C@H]2c3cc(C(=O)N4CCCC4)n(C[C@H](O)CO)c3C[C@H]2CN1C(=O)c1ccccc1,4322
COc1ccc(-c2ccc(CN3C(C(C)C)C(=O)N(Cc4cn(CC5CCCCC5)nn4)CCS3(=O)=O)cc2)cc1 (stereo unspecified),2963
CC(=O)C(=Cc1ccc(-c2ccccc2)cc1)C(=O)c1ccccc1,6532
COc1cccc(-c2ccc(CN3C(C(C)C)C(=O)N(Cc4cn(CCC5OCCO5)nn4)CCS3(=O)=O)cc2)c1OC (stereo unspecified),5777
Cc1ccc(-c2csc(C(O)(c3ccccc3)C(F)(F)F)n2)cc1C (stereo unspecified),3567
O=C(Nc1cccc(Cc2ccccc2)c1)Nc1ccc2nc([C@@H]3O[C@H](CO)[C@@H](O)[C@H](O)[C@H]3O)[nH]c2c1,5833
COc1ccc(CN(C)C(=O)[C@H]2O[C@@H](n3cnc4c(N)ncnc43)[C@H](O)[C@@H]2O)cc1OC,5431
COc1cc(/C=C2\C(=O)N(c3cccc(C(=O)O)c3)N=C2C)ccc1OCc1ccccc1,3783
COc1ccc(C(C)(NC(C)=O)c2nc(-c3cccc4cccnc34)cs2)cc1 (stereo unspecified),3826
CCC(c1nnnn1-c1ccc2c(c1)OCCO2)N1CCc2ccccc2C1 (stereo unspecified),5742
CC[C@H](C)/C=C(C)/C=C/c1cc2c(cn1)C(=O)[C@@](C)(OC(C)=O)C(O)=C2Cl,5116
Cc1ccc(CN2C(=O)C(Cc3ccccc3)Nc3ncnc(N4CCOCC4)c32)cc1 (stereo unspecified),5130
O=c1ccn([C@@H]2O[C@H](CNCc3ccccc3)[C@@H](O)[C@H]2O)c(=O)[nH]1,5475
Cc1ccc(OCCN2CCC2(C)C(=O)Nc2ccc3c(c2)OCO3)cc1 (stereo unspecified),3728

# New compounds follow:
SMILES,Autofluor counter
Cn1cnc([N+](=O)[O-])c1Sc1ccncn1,4122
CC(=O)c1cccc(NC(=O)C2(C)Cc3c(-c4cccc(C(N)=O)c4)ccnc3O2)c1 (stereo unspecified),4228
COc1ccc(Cc2nc3ccc(C(=O)N(C)Cc4nccn4C)cc3o2)cc1,3693
Cc1ccc(Cn2cc(CN3CC(N4CCCC4)CS3(=O)=O)nn2)cc1 (stereo unspecified),6069
Cc1nc2cc(Oc3nc(NCCN(C)C)nc4ccsc34)ccc2s1,3857
c1ccc(COc2cccc(-c3cc4nc(NCc5ccc6c(c5)OCO6)ccn4n3)c2)cc1,3929
OC[C@H]1O[C@@H](c2nc(-c3nc(-c4ccc(F)cc4)no3)cs2)[C@H](O)[C@@H](O)[C@H]1O,3999
NC(Cc1ccc(C(F)(F)F)cc1)c1csc(NC(=O)Nc2ccccc2)n1 (stereo unspecified),3969
CC(C)NC(=O)N(C)C[C@H]1Oc2ncc(Br)cc2C(=O)N([C@H](C)CO)C[C@@H]1C,3333
Cc1ccc2nc(-c3ccccc3)c(Cc3ccccn3)n2c1,6226
CC(=O)Nc1cccc(/C(C)=N/NC(=O)c2cccc(S(=O)(=O)N3CCCC3)c2)c1,4243
c1ccc2c(c1)COc1c3cc4c(cc3nn1-2)OCO4,3806
O=C(Nc1cccnc1)C1Cc2c(-c3ccc4c(c3)OCO4)ccnc2O1 (stereo unspecified),4092
Cc1ccc([C@@H]2C[C@H]3[C@@H](CN2S(=O)(=O)c2ccc(C)cc2)C(=O)C[C@@H](c2ccc(Cl)cc2)N3S(=O)(=O)c2ccccc2C)cc1,3080
CCn1cc(C(=O)N2CCCC(C(=O)c3cccc(C(F)(F)F)c3)C2)cn1 (stereo unspecified),3894
Cc1cccc(C)c1NC(=O)C1(C)CCC(=O)N1CCOc1ccccc1 (stereo unspecified),5287
Cc1cc(C)cc(Cn2cc(CN3CC(N4CCSCC4)CS3(=O)=O)nn2)c1 (stereo unspecified),4137
C[C@@H](NC(=O)[C@@H]1CCCN1C(=O)[C@@H]1CCCN1C(=O)OC(C)(C)C)c1ccccc1,5900
CC(C)C[C@H]1CN([C@@H](Cc2ccccc2)CN2CCC[C@H]2CN2C(=O)C(=O)NC[C@@H]2Cc2ccc(O)cc2)C(=O)C(=O)N1CCc1ccccc1,4326
CCCC(=O)N1CCC1(C)C(=O)Nc1ccc2c(c1)OCCO2 (stereo unspecified),2850
CN(C)C(=O)c1cccc(-c2cnc3c(NC=O)cc(-c4ccc(C(=O)N5CCOCC5)cc4)cn23)c1,3076
O=C(NCc1ccc(Cl)c(Cl)c1)c1cc(C2CCCCN2C(=O)C2CCCCC2)on1 (stereo unspecified),4008
COC(=O)[C@]12CCCCC=C1N(CCC1=CCCCC1)C(=O)[C@H](CC(=O)NCc1cccc(C(F)(F)F)c1)C2,5690
CC(C)(C)C(=O)c1c(N)[nH]c(C(=O)c2ccccc2)c1-c1ccccc1Br,4341
CCCS(=O)(=O)NC(=O)C1(C)CCCN(C(=O)C2(c3ccc(Cl)cc3)CCCC2)C1 (stereo unspecified),3616

# New compounds follow
SMILES,Autofluor counter
O=S(CC(O)(c1ccccc1)c1ccccc1)CC(O)(c1ccccc1)c1ccccc1,3002
COC(=O)C[C@H]1C[C@H]2c3cc(NC(=O)Nc4ccc(F)cc4)ccc3O[C@H]2[C@@H](CO)O1,3380
Cc1ccc(F)c(S(=O)(=O)NC(=O)C2(C)CCN2C(=O)c2ccccc2)c1 (stereo unspecified),3483
CC(C)N(Cc1ccccc1)S(=O)(=O)c1ccc(-n2cccn2)cc1,4072
COCCNC(=O)C1CCCN(Cc2ccccc2-c2ccccc2)CC1 (stereo unspecified),3793
O=C(Nc1nnc([C@@H]2C[C@H](O)[C@@H](CO)O2)s1)NC1CCCCC1,2906
COc1ccc(N2CCN(CCCn3ccc(NC(=O)OCc4ccccc4)nc3=O)CC2)cc1,3824
COc1ccc(Cc2c(-c3cccc(Br)c3)nc3cc(C)c(Br)c(C)n23)c(C)c1,4530
CCC(=O)N1CCC1(C)C(=O)NS(=O)(=O)c1cccc(C#N)c1 (stereo unspecified),3618

# Structures from the list above with a furan ring, fused or not (3):
SMILES,Autofluor counter
O=C(/C=C/[C@H]1O[C@@H](n2cnc3c(NC(=O)c4ccccc4)ncnc32)[C@H](O)[C@@H]1O)NCc1ccco1,5422
Clc1ccccc1-c1cc2nc(NCc3ccco3)ccn2n1,3003
COc1ccc(C(=O)N/C(=C\c2ccc(-c3cccc([N+](=O)[O-])c3)o2)C(=O)NCCCN2CCOCC2)cc1,4631

# High-throughput results from PubChem.
